# Mtb betalactam = beta-lactam sensitization of Mtb H37Rv, H37Rv. M. tuberculosis H37Rv growth with meropenem, percent inhibition; hits of this screen are not shown here. 0.27% of 330,000 active. AID 434955, 2010. inhibition, % at 25 µM;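 active = about 74% or more and at least 40 points above the plate without the antibiotic, then above 30% in a dose series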;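 also: growth measured after seven days incubation then overnight dye step; 0% = bacteria only wells and 100% = bacteria with antibiotic; twin plates without the antibiotic show which effects depend on it; some results filed as inactive read as strong as hits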
# RecA splice inh = Mtb RecA intein splicing inhibitors, primary screen, biochemical, fluorescence, HTS. cell-free RecA intein splicing. 0.75% of 290,000 active. inhibition, %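 (about 9 µM by stock and volumes)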. Protein RecA (Mycobacterium tuberculosis (strain ATCC 25618 / H37Rv)), P9WHJ3; in the data active = inhibition above about 30%;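 also: 0% = vehicle wells and 100% = reference inhibitor control wells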
# Target sequence (P9WHJ3 whole entry, looked up, canonical isoform): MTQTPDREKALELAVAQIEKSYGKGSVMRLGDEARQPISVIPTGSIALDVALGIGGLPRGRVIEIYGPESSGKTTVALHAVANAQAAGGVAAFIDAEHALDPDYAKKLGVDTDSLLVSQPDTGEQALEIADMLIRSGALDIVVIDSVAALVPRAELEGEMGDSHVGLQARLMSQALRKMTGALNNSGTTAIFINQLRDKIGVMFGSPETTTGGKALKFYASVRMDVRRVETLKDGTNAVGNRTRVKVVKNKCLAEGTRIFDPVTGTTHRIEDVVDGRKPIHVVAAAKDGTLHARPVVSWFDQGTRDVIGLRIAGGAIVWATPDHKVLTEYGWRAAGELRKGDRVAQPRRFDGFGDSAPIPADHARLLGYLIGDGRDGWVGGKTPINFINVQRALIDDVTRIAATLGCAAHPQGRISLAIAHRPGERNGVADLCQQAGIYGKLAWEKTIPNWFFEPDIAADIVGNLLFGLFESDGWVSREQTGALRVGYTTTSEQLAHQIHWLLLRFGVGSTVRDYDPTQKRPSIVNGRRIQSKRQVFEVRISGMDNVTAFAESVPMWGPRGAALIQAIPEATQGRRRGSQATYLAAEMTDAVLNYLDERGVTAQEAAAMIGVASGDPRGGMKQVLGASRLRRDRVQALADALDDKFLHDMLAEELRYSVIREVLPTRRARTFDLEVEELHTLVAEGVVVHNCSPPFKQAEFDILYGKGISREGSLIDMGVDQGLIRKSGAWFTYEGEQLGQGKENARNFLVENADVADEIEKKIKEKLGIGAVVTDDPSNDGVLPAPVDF
# Mtb H37Rv = M. tuberculosis H37Rv growth inhibitors, H37Rv strain (AID 1626) | M. tuberculosis H37Rv growth inhibition; higher % means a stronger effect | inhibition, % at 10 µM; hits with a dose series show IC50 in µM | 0.95% of 220,000 active;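 active = confirmed in a dose series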;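 also: bacteria incubated seven days before Alamar blue readout; 0% = bacteria only wells and 100% = bacteria with antibiotic wells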
# Arbovirus anti = antivirals against arbovirus infection, primary screen, cell-based, full library, 10K replicate subset; arbovirus infection cell-based antiviral screen; 0.37% of 200,000 active; inhibition, % at 10 µM;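 active = inhibition from about 30%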;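 also: bluetongue infection of BSR cells; cell survival read as ATP light after 72 h; 0% = infected wells without compound and 100% = uninfected wells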
# YopH inh = YopH tyrosine phosphatase inhibitors, primary screen, biochemical, fluorescence Ex485/Em525. 0.16% of 140,000 active. YopH tyrosine phosphatase [Yersinia enterocolitica]. inhibition, %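 (about 10 µM by stock and volumes)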;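 active = inhibition of 50% or more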;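 also: controls were vehicle for no effect and minimum signal wells for full effect; inactives centre near -20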
# Arbovirus anti repeat = recorded beside Arbovirus anti, whose call it bears; inhibition, %; measured here: 10K subset replicate screen; many hits read low in the repeat;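 first of two repeat runs on a subset; 0% = infected and 100% = uninfected wells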
# * marks the source's active call; other numbers are inactive results; x = not tested or not shown.
# A first look, six compounds:
SMILES,Mtb betalactam,RecA splice inh,Mtb H37Rv,Arbovirus anti,YopH inh,others
CCC1Oc2ccc(C)cc2N(CC(=O)N(Cc2ccc(C)o2)C2CCCC2)C1=O (configuration not stated),3,2.4,x,-19,-20,
Cc1ccc2c(c1)Cc1nc3ccccc3nc1-2,4,4.5,83µM*,-10,x,
CCS(=O)(=O)NCCc1csc(-c2ccccc2)n1,-2,-1.5,-13%,-1,-41,
CC(C)CN1C(=S)SC(C)(C)C1n1oc(=O)n(-c2ccc(Cl)cc2)c1=O (configuration not stated),6,0.2,5%,-16,-27,
O=C(NC(=S)Nc1cccc([N+](=O)[O-])c1)c1ccco1,4,0.7,0%,-10,30,
CN1CCN(C(=S)Nc2ccc(S(N)(=O)=O)cc2)CC1,2,-4.9,3%,0,x,

# Main list, from the first entry:
SMILES,Mtb betalactam,RecA splice inh,Mtb H37Rv,Arbovirus anti,YopH inh,others
CCC1Oc2ccc(C)cc2N(CC(=O)N(Cc2ccc(C)o2)C2CCCC2)C1=O (configuration not stated),3,2.4,x,-19,-20,
Cc1ccc2c(c1)Cc1nc3ccccc3nc1-2,4,4.5,83µM*,-10,x,
CCS(=O)(=O)NCCc1csc(-c2ccccc2)n1,-2,-1.5,-13%,-1,-41,
CC(C)CN1C(=S)SC(C)(C)C1n1oc(=O)n(-c2ccc(Cl)cc2)c1=O (configuration not stated),6,0.2,5%,-16,-27,
O=C(NC(=S)Nc1cccc([N+](=O)[O-])c1)c1ccco1,4,0.7,0%,-10,30,
CN1CCN(C(=S)Nc2ccc(S(N)(=O)=O)cc2)CC1,2,-4.9,3%,0,x,
Cc1ccc(-c2csc(NC(=O)COC(=O)c3cccc(S(=O)(=O)N4CCOCC4)c3)n2)cc1,22,x,-8%,-10,-17,
Cc1ccc2c(c1)sc1nc(=O)n(-c3ccccc3)c(=O)n12,17,0.0,11%,x,x,
O=C(CCCCn1c(=O)c2ccccc2n(CC(=O)NC2CCCC2)c1=O)NC1CCCC1,-3,1.1,-7%,0,-33,
COc1ccc(CC(=O)NCc2nnc(SCC(=O)Nc3nccs3)n2C)cc1,7,-1.2,6%,11,x,
Cc1ccc(S(=O)(=O)c2c[nH]c3ccc(C)cc3c2=O)cc1,6,-4.2,x,x,x,
CCN(CC(=O)Nc1sc2c(c1C#N)CCCC2)Cc1nc2ccccc2c(=O)[nH]1,94,-0.1,37%,14,x,
CCn1ncc(C2=NOC(C(=O)Nc3cccc(C(C)=O)c3)C2)c1C (configuration not stated),-6,0.7,1%,12,7,
Cc1nc2cc(-c3ccccc3)nn2c(C)c1CCC(=O)N1CCC2(CC1)OCCO2,4,1.0,-1%,0,-20,
CN(CC(=O)Nc1cccc(F)c1)C(=O)c1cccnc1Sc1ccccc1Cl,-2,2.6,x,x,x,
O=C(Nc1ccncc1)c1ccccc1[N+](=O)[O-],-3,-1.3,0%,6,x,
O=C(CSc1nc(C2CC2)nc2ccccc12)Nc1cccc(O)c1,-3,-4.2,x,x,x,
N#Cc1ccccc1Sc1ccccc1C(=O)OCC(=O)NC1CCS(=O)(=O)C1 (configuration not stated),-2,-1.5,-2%,-5,-22,
CCc1nn(CC(=O)NCCCN(C)Cc2ccccc2)c(=O)c2cc3sc(C)cc3n12,21,-5.0,x,x,x,
Cc1ccc(S(=O)(=O)NC(C)C(=O)Nc2cccc([N+](=O)[O-])c2)cc1 (configuration not stated),2,-1.7,0%,8,x,
CN1C(=O)CC(N2CCN(c3ccccc3)CC2)C1=O (configuration not stated),6,-1.9,-16%,x,-1,
CC1(C)CC(=O)c2c(O)cc(OCc3ccc(Br)cc3)cc2O1,91,3.3,7%,6,-37,
CN(CCOc1ccc(-c2ccn(S(=O)(=O)c3ccc(Cl)cc3)n2)cc1)c1ccccn1,4,x,2%,-4,-26,
Cc1ccc(C(NC(=O)N2CCOCC2)=C(Cl)Cl)cc1F,0,15,-6%,-28,-19,
Nc1nc(OCc2ccccc2)c2[nH]cnc2n1,8,11,-8%,x,x,
O=[N+]([O-])c1ccc(-c2ccc(C=Nc3cccc4ccccc34)o2)cc1,-7,4.3,66%,-18,-51,
Cc1ccc(S(=O)(=O)/N=C(\CN2CCOCC2)N2CCCC2)cc1,5,-1.7,-7%,-7,-23,
CCc1nc2ccc(C)cc2c(C(=O)Oc2cccc3cccnc23)c1C,89,3.6,-2%,5,-17,
O=C1C2C3C=CC(c4ccccc4)(C2C(=O)N1c1cccc(Cl)c1)C1C(=O)N(c2cccc(Cl)c2)C(=O)C31 (configuration not stated),-3,-0.4,16%,1,-12,
CCN(C(=O)c1cc2cc(OC)ccc2oc1=O)c1cccc(C)c1,-8,-2.3,-4%,-10,-43,

# Compounds above that have a thiophene ring, fused or not:
SMILES,Mtb betalactam,RecA splice inh,Mtb H37Rv,Arbovirus anti,YopH inh,others
CCN(CC(=O)Nc1sc2c(c1C#N)CCCC2)Cc1nc2ccccc2c(=O)[nH]1,94,-0.1,37%,14,x,
CCc1nn(CC(=O)NCCCN(C)Cc2ccccc2)c(=O)c2cc3sc(C)cc3n12,21,-5.0,x,x,x,

# Additional records
SMILES,Mtb betalactam,RecA splice inh,Mtb H37Rv,Arbovirus anti,YopH inh,others
CCOC(=O)c1c(-c2ccccc2)oc2ccc(OCC(=O)NNC(=O)CCCC(=O)O)cc12,14,0.4,x,x,x,
CCOP(=O)(OCC)C1(C(=O)O)CCCC1,-4,0.8,-10%,x,x,
CCN(CC(=O)Nc1ccc(S(N)(=O)=O)cc1)S(=O)(=O)c1cc(C)ccc1OC,26,-0.7,-1%,6,-10,
CC(=O)n1cc([C@H]2C=C(C(=O)NCc3ccccc3)O[C@@H](OCc3ccc(CO)cc3)C2)c2ccccc21,35,2.9,7%,2,x,
CC1(C)CC(=O)C(CCC(=O)c2ccccc2)C(C)(C)N1 (configuration not stated),-9,-2.9,-2%,-9,-9,
Cc1cc(C(=O)COC(=O)CC2Sc3ccccc3NC2=O)c(C)n1-c1ccc(Br)cc1 (configuration not stated),5,8.1,2%,2,-1,
Cc1ccc(CN2CCN(CC(=O)NCCCN3CCN(c4ccc(F)cc4)CC3)C2=O)cc1,7,x,-4%,7,8,
CC1(C)N=C(N)NC(Nc2ccc(Br)cc2)=N1,6,-1.1,-6%,3,-3,
CCCC(C(=O)NCCC(C)C)N(Cc1ccc(OC)cc1)C(=O)c1snc(C(N)=O)c1N (configuration not stated),-9,-3.8,x,x,x,
O=C(COC(=O)Cc1ccccc1[N+](=O)[O-])NCc1ccccc1Cl,-9,-2.7,6%,9,-29,
COC(=O)/C=C/C(=O)NCc1ccco1,0,-1.5,-6%,-3,-22,
CC(=O)N1CCN(C(=S)c2ccc([N+](=O)[O-])cc2)CC1,-3,-2.4,-8%,-3,-32,
NNC(=O)C1CC(O)CN1S(=O)(=O)c1ccc(Cl)cc1 (configuration not stated),10,0.0,3%,-4,x,
CC(=O)Nc1ccc(NC(=O)CSc2nnc(-c3ccco3)o2)cc1,-10,1.2,-5%,13,x,
COc1cc2c(cc1OC)CN(CCC(=O)c1ccc(Br)cc1)CC2,82,1.1,-3%,-27,x,
COc1ccc2cc(C(=O)C3CCCN(C(=O)C4=NN(C)C(=O)CC4)C3)ccc2c1 (configuration not stated),5,-3.8,x,x,x,
O=C(Oc1ccc2c(c1)OCO2)C12CC3CC(CC(C3)C1)C2,2,3.6,-11%,1,-21,
COc1ccc(CCNC(=O)COc2nncc3ccccc23)cc1,5,0.6,3%,6,x,
COc1ccccc1NC(=O)CSCC(=O)N1c2ccccc2CCc2ccccc21,1,6.7,0%,3,-21,
COc1ccc(-c2nc3n(c(=O)c2C#N)CCS3)c(OC)c1,1,-2.5,x,x,x,
COc1cc(Cl)ccc1OCc1cc(C(=O)N2CCN(c3ccccn3)CC2)no1,87,6.4,x,x,x,
Brc1ccc(-c2nc(-c3ccccn3)no2)o1,0,-1.0,-1%,0,-41,Arbovirus anti repeat=-5
COCCCNC(=O)c1cc(C(=O)c2ccccc2Br)c[nH]1,-5,-0.6,-5%,-4,x,
COC(=O)C1=C(NC(=O)c2cccc(OC)c2)CCS1,3,-3.0,-7%,3,-6,
Cc1ccc(C(=O)N2CCN(c3ccccn3)CC2)cc1,-1,-1.4,-3%,0,x,
O=C(COc1ncnc2ccccc12)NCCc1ccccc1,-5,1.2,2%,0,x,
COc1ccc(Cl)cc1-n1c(N)c(C(N)=O)sc1=S,16,1.0,-1%,3,-37,
CCOCC(=O)Nc1nnc(C2CCCCC2)s1,-8,2.3,5%,2,-7,
CCn1ncc(Br)c1C(=O)Nc1ccccc1C(F)(F)F,-6,0.5,x,x,x,
COc1ccc2c(c1OC)C(=O)N1C2SC[C@H]1C(=O)NC1CC(C)(C)NC(C)(C)C1 (some centres not stated),x,0.6,-9%,11,-34,
O=C(c1ccccc1)N1CCN(c2ccc(N3CCOCC3)nn2)CC1,-5,-9.0,x,x,x,
COCCn1c(SC(C)C(=O)Nc2ccc(N3CCOCC3)cc2)nnc1-c1ccncc1 (configuration not stated),2,-2.4,x,x,x,
N#Cc1cc([N+](=O)[O-])cnc1N(CCO)CCO,-4,-4.8,-2%,0,4,
COn1c(-c2ccc(C)cc2)nc2ncccc21,-5,1.9,x,x,x,
COc1ccc(Oc2c(C)oc3cc(OC(=O)N4CCOCC4)ccc3c2=O)cc1,-1,2.3,1%,-3,7,
COc1ccc(CCNC(=O)C(=O)NCC2OCCN2S(=O)(=O)c2cccs2)cc1 (configuration not stated),-4,0.5,x,x,x,
CN1CCN(S(=O)(=O)c2cccc(C(=O)Nc3cc(C(F)(F)F)ccc3N3CCCCC3)c2)CC1,3,8.6,x,x,x,
COc1ccc(NC(=O)c2ccc3nc[nH]c3c2)cc1,-3,3.7,x,x,x,
COc1ccccc1NCCC(=O)OCC(=O)NC1CCCC(C)C1C (configuration not stated),-6,-0.7,12%,8,-33,
CC1=C(C(=O)Nc2ccccc2C(=O)NCCCOC(C)C)SCCO1,-3,0.4,x,x,x,
COc1ccc(C(=O)Oc2ccc(/C=N/NC(=O)c3ccccc3OC)cc2[N+](=O)[O-])cc1,3,-1.0,7%,18,-16,
C/C(=N\Nc1ccc(Cl)c(C(=O)O)c1)c1cc2ccccc2o1,1,x,5%,8,x,
COCCCNCCOCCOc1ccc(C)cc1[N+](=O)[O-],-1,-0.9,-1%,4,-22,
CC(Nc1nc(N2CCN(CCO)CC2)nc2ccccc12)c1ccccc1 (configuration not stated),3,1.2,2%,-12,x,
Cc1ccc(N2CCN(C(=S)Nc3ccccc3C)CC2)cc1,4,2.6,x,x,x,

# 7 successive records already listed, for reference:
SMILES,Mtb betalactam,RecA splice inh,Mtb H37Rv,Arbovirus anti,YopH inh,others
O=C(c1ccccc1)N1CCN(c2ccc(N3CCOCC3)nn2)CC1,-5,-9.0,x,x,x,
COCCn1c(SC(C)C(=O)Nc2ccc(N3CCOCC3)cc2)nnc1-c1ccncc1 (configuration not stated),2,-2.4,x,x,x,
N#Cc1cc([N+](=O)[O-])cnc1N(CCO)CCO,-4,-4.8,-2%,0,4,
COn1c(-c2ccc(C)cc2)nc2ncccc21,-5,1.9,x,x,x,
COc1ccc(Oc2c(C)oc3cc(OC(=O)N4CCOCC4)ccc3c2=O)cc1,-1,2.3,1%,-3,7,
COc1ccc(CCNC(=O)C(=O)NCC2OCCN2S(=O)(=O)c2cccs2)cc1 (configuration not stated),-4,0.5,x,x,x,
CN1CCN(S(=O)(=O)c2cccc(C(=O)Nc3cc(C(F)(F)F)ccc3N3CCCCC3)c2)CC1,3,8.6,x,x,x,

# Further structures follow.
SMILES,Mtb betalactam,RecA splice inh,Mtb H37Rv,Arbovirus anti,YopH inh,others
Cc1ccc(C(=O)NCc2ccco2)cc1[N+](=O)[O-],-7,-4.6,1%,-2,-23,
C[N+]1(CC(=O)OCCCC2CCCCC2)CCCC1,-7,-5.4,2%,4,x,
CCOC(=O)Cc1nnc2c(Nc3ccccc3F)nc3nonc3n12,4,-1.0,4%,-1,5,
CC1CC(=O)C2=C(C1)Nc1ccccc1N=C2 (configuration not stated),-4,-0.2,-1%,1,19,
COc1ccc(NS(=O)(=O)c2cccc(C(=O)N/N=C(\C)c3ccncc3)c2)cc1,2,3.3,-2%,-5,-30,
CCOc1ccc(-c2nc(CSCC(=O)N3CCN(C(=O)c4ccco4)CC3)c(C)o2)cc1,-1,3.2,0%,6,x,Arbovirus anti repeat=6
COc1ccc(CCNC(=O)Cn2c(=O)[nH]c3ccsc3c2=O)cc1OC,3,-3.8,-1%,4,x,
CCOC(=O)C(Cc1ccccc1)C(=O)NCc1ccccc1 (configuration not stated),-25,1.3,x,x,x,

# Retrieved one by one from the entries so far:
SMILES,Mtb betalactam,RecA splice inh,Mtb H37Rv,Arbovirus anti,YopH inh,others
CCOC(=O)Cc1nnc2c(Nc3ccccc3F)nc3nonc3n12,4,-1.0,4%,-1,5,
COc1ccc(CCNC(=O)Cn2c(=O)[nH]c3ccsc3c2=O)cc1OC,3,-3.8,-1%,4,x,

# From PubChem BioAssay

# A portion of the library, so the mix of outcomes need not match the whole.
